# D2 potentiator: potentiates the human D2 dopamine receptor allosterically; AID 624464; potentiation, % (concentration not given with the values); 360,000 compounds, 0.23% hits; DiscoveRx D2 beta-arrestin cells, luminescence, 90 min; 100% = 57 uM dopamine signal; active = potentiation of 50% or more; inconclusive = 30% to 50%; inactive = 30% or less;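 also: tested on top of an EC20 dose of dopamine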
#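 PathHunter beta-arrestin assay in DiscoveRx D2 cells. Compounds were added with an EC20 of dopamine (50 nM final) for 90 min at 37 deg C. Luminescence was read 1 h after detection reagent, with 57 uM dopamine as the EC100 control.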
# Sfp inh: blocks B. subtilis Sfp PPTase activity; Biochemical Sfp PPTase activity, qHTS; Potency, µM, for the others: max response, negative = inhibition, hits mostly inhibitors; 310,000 compounds, 3.5% hits; active = well fitted inhibition curve with a large enough effect; inconclusive = small, poorly fitted or top-dose-only effect, or another doubt; inactive = no such curve, though single readings can be large or run the other way;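 also: the enzyme is Sfp with the accession as filed and its product quenches rhodamine fluorescence; potency is read from the fitted curve at half-maximal effect; 0% = enzyme reaction without inhibitor and -100% = no enzyme wells; top concentration of the series not given in the record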
#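 With Hepes-Na pH 7.6 buffer containing 10 mM MgCl2, Sfp (15 nM) modified BHQ-2-YbbR (12.5 uM) using rhodamine-CoA (5 uM). Two reads 30 minutes apart at 525/598 nm yielded each well's rate.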
# TRPV1 potentiator: potentiators of human vanilloid receptor 1 (TRPV1) | TRPV1-expressing cells, Fluo-8 calcium influx, capsaicin EC20 potentiation; host cell line not named in the record; control for the full effect not named in the record | potentiation, % at 8.33 µM | 320,000 compounds, 0.02% hits; active means potentiation above 80%; inconclusive means 30% to 80%; inactive means below 30%; also: 0% is about no effect
# Target sequence (Q8NER1 whole entry, looked up): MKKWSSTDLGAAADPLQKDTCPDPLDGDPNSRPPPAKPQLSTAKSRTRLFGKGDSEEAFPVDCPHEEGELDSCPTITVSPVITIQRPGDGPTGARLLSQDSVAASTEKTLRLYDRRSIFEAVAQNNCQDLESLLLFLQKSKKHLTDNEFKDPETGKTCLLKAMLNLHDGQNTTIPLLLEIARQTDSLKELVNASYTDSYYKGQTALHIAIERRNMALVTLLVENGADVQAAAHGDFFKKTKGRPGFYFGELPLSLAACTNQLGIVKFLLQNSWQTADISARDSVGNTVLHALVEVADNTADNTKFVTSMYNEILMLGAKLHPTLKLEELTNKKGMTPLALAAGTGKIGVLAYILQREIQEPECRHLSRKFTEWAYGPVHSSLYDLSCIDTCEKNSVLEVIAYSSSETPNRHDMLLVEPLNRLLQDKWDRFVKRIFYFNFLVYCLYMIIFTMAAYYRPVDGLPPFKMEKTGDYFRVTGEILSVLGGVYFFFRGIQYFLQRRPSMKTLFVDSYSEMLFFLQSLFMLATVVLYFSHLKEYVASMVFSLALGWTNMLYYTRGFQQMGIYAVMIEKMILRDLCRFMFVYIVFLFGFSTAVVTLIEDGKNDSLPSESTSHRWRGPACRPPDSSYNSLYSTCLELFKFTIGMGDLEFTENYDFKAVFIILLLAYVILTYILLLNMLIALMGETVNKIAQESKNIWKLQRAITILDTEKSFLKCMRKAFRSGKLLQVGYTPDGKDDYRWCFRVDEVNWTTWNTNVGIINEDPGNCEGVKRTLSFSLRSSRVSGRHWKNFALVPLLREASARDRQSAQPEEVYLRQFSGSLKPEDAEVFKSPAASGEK
#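 TRPV1-expressing cells were cultured overnight at 35.5C and loaded with Fluo-8 calcium dye for 40 to 90 min at room temperature. After a 10 s baseline, compound was added and calcium influx was read kinetically for 3 min (ex 480/em 520 nm).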
# Menin-MLL FL inh: inhibitors of human menin-MLL interaction, wild-type MLL peptide | FP activity change, % at 61.4 µM | Fluorescence polarization, fluorescein-MLL peptide displacement from menin | AID 1766 | 290,000 tested, under 10 active; inconclusive = falling polarisation curve, or a change in total fluorescence; inactive = total fluorescence flat and polarisation flat or rising; no compound was filed as active; the % refers to the polarisation; negative = inhibition;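 also: % of control where 0% means no effect; inhibitors lower the polarisation; unlabelled MLL peptide was the positive control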
# gsp agonist: agonists of gsp mutant (McCune-Albright syndrome); gsp mutant cells, cAMP HTRF, 30 min; control for the full effect not named in the record; Potency, µM (series often up to 76.9 µM), for inactives: top-dose activation (cAMP increase), actives largely listed as activators; 340,000 compounds, 0.13% hits; AID 624287; active = well fitted activation curve with a large enough effect; inconclusive = small, poorly fitted or top-dose-only effect, or another doubt; inactive = no such curve, though single readings can be large or run the other way; cell line not stated here;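 also: phosphodiesterase inhibitor Ro 20-1724 added with compounds to block cAMP breakdown; potency is read from the fitted curve at half-maximal effect; nearly all actives have a fitted effect of over 60% in size; about a fifth of the inactives were tested at one dose only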
#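 Cells in DMEM/10% FBS with G418 were pretreated with compounds in DMSO plus […] (300 uM stock) for 30 min at 37C. cAMP was measured by HTRF (cAMP-d2 plus anti-cAMP antibody-K) after 30 min at room temperature.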
# ClpP mod: qHTS Assay for Activators of ClpP; AID 651965, 2013; 340,000 compounds, 1.9% hits; purified B. subtilis ClpP, FRET peptide cleavage, 20 min; Potency, µM (top dose mostly 57.5 µM), inactives show top-dose activity change, negative = active; active = well fitted falling curve with a large enough effect; inconclusive = small, poorly fitted or top-dose-only effect; inactive = no such curve, though single readings can be large or run the other way; also: potency is read from the fitted curve at half-maximal effect; the source files actives as falling curves though it sought activators and does not explain the sign; nearly all actives have a fitted effect of over 65% in size; many hits overshoot -100%
# Target sequence (P80244 whole entry, looked up): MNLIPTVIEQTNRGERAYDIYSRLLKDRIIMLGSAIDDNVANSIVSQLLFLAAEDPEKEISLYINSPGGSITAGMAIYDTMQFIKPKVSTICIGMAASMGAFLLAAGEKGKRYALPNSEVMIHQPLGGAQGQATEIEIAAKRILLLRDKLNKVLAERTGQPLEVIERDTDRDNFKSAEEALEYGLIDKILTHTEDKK
#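 FRET quenching reversal measured ClpP activation: 10 microg/mL B. subtilis ClpP at pH 8 with the FRET-FV decapeptide, read at 430 nm after 320 nm excitation. The 20-min minus 0-min signal was scaled between DMSO/no-enzyme wells and ADEP (5.8 microM final).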
# gsp antag: gsp mutant antagonism | gsp-mutant cells, cAMP HTRF, 30 min; control for the full effect not named in the record | Potency, µM (doses to about 76.9 µM), inactives show at the highest dose activity change, negative = inhibition, usual class: inhibitors | 340,000 compounds, 0.4% hits; active = falling curve of any shape with a large fitted effect; inconclusive = falling curve, mostly with a smaller effect; inactive = flat or rising curve; cell line not stated here;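 also: intracellular cAMP measured with PDE inhibitor Ro 20-1724 present during compound exposure; potency is read from the fitted curve at half-maximal effect; % is scaled to controls: 0 for no effect and ±100 for the full control effect; nearly all actives have a fitted effect of over 65% in size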
#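 Measurement of cellular cAMP by homogeneous time-resolved fluorescence following a 30 min compound exposure at 37C. The PDE inhibitor […] was present throughout; the assay buffer was DPBS with 0.05% BSA and 0.005% Tween 20.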
# * = called active by the depositor; ? = inconclusive; / = not tested or not shown; [ ] = remark or other dose.
SMILES,D2 potentiator,Sfp inh,TRPV1 potentiator,Menin-MLL FL inh,gsp agonist,ClpP mod,gsp antag
O=C(c1ccc(Cl)c(S(=O)(=O)N2CCCC2)c1)N1CCOCC1,-7,3%,-13,-1.7,7%,-3.9%,-1%
Nn1c(SCC(=O)N2CCCC2)nnc1C1CCCCC1,-20,/,/,/,29%,-3.0%,/
Cc1cc(C(=O)COC(=O)CCc2nc3ccccc3c(=O)[nH]2)c(C)n1CC1CCCO1 (stereo not given),-2,15%,-1,2.6,-1%[15.4 µM],/,-4%
CCN1C(=O)[C@H]2[C@@H](c3ccc(Cl)cc3)N3C(=O)CN(CC4CC4)C(=O)[C@@]3(Cc3ccccc3)[C@H]2C1=O,-4,7%,-10,0.4,3%,0.7%,4%
Cc1cccc(NC(=O)CSc2ncnc3nc[nH]c23)c1C,-2,17%,21,0.0,5%,-4.8%,9%
Cc1[nH]c(C)c(S(=O)(=O)Nc2ccccc2Cl)c1C(=O)N1CCCC1,-9,19%,13,-4.4,25%,-1.9%,11%
CN(C)c1ccc(N=Cc2nc(-c3ccccc3)oc2O)cc1,16,-2%,/,?,1%,22µM*,-26%
Cc1cc(C(=O)Nc2ccc3nc(C)sc3c2)c2ccccc2n1,-14,6%,-6,1.1,10%,-3.4%,0%
CCc1cc(=O)oc2c3c(cc(OCC(=O)NCc4ccncc4)c12)OC(C)(C)CC3,2,14%,-3,-0.1,/,4.7%,-8%
COC(=O)c1ccccc1NC(=O)N1CCCC1,-7,9%,8,3.1,8%,16µM*,-1%
Cc1cc(C)c2[nH]c(=O)c(CN(Cc3ccco3)C(=S)NCC3CCCO3)cc2c1 (stereo not given),-3,0%,-14,7.2,6%[15.4 µM],2.0%,5%
S=C(c1ccc(-c2ccccc2Cl)o1)N1CCCCC1,-12,40µM*,-12,-3.1,0%,-20%,1%
COc1cc2c(c(OC)c1OC)-c1ccc(NC(=O)c3ccccc3)c(=O)cc1[C@@H](NC(C)=O)CC2,-6,-6%,-5,-4.0,-11%,/,6%
N/C(=N\OC(=O)c1cccnc1)c1ccccc1Cl,13,-4%,-15,-0.6,11%,0.7%,0%
O=C(Cc1cccs1)NCc1cc(Cl)cc(Cl)c1,-5,7%,-19,-0.4,-47%[inhibitor][15.4 µM],/,-3%
CC(=O)Nn1cc2c(=O)n(C)c(=O)n(C)c2c1,1,5%,0,-0.7,7.9µM*,-0.2%,10%
O=C(NC1CCCc2ccccc21)c1ccc(CNc2c(N3CCOCC3)c(=O)c2=O)cc1 (stereo not given),-3,0%,-4,-0.5,10%,0.5%,2%
Cc1nn(Cc2ccccc2Cl)c(C)c1NC(=O)c1noc2c1CCCCC2,-9,-28%,-5,0.8,-9%,-2.7%,-6%
COC(=O)c1ccc(OCCOCCOc2cccc3ccc(C)nc23)cc1,-5,-9%,1,4.5,-2%,-22%,-8%
N#Cc1ccccc1CSc1nc(O)cc(=O)[nH]1,4,2%,27,-0.6,-16%,1.3%,4%
COCCCN1C(=O)C(O)=C(C(=O)c2ccco2)C1c1ccccc1 (stereo not given),13,9%,-3,2.9,?,-0.3%,17%
C[C@@H]1CN([C@H](C)CO)C(=O)c2cc(Br)cnc2O[C@@H]1CN(C)C(=O)C1CCOCC1,-1,/,/,/,2%,-1.2%,/
Cc1ccc(C)c(NC(=O)CCc2nnc3ccc(N4CCCCC4)nn23)c1,-1,18%,14,3.4,29%,-2.1%,-2%
CCOC(=O)c1cnc2nc(N3CCOCC3)nn2c1N,-2,8%,7,-6.2,-8%[15.4 µM],/,3%
CCCc1cnc(N2CCN(S(=O)(=O)c3cccs3)CC2)nc1,1,12%,-5,4.8,2%,/,8%
# Going on with the list:
SMILES,D2 potentiator,Sfp inh,TRPV1 potentiator,Menin-MLL FL inh,gsp agonist,ClpP mod,gsp antag
CCOC(=O)C(Cc1ccccc1)NC(=O)CCc1c(C)nc2ncnn2c1C (stereo not given),-12,11%,3,1.0,15%,0.8%,-5%
COc1ccc2cc(N3CCCC3=O)ccc2c1,-5,/,/,/,7%[15.4 µM],-1.0%,-1%
O=C(NNC(=S)Nc1ccc(Cl)cc1)c1ccccc1,-22,3%,12,/,-7%,9.2%,1%
Nc1nonc1C(=Nc1ccc(Br)cc1)NO,-9,10%,7,4.3,2%,0.1%,5%
CC1CC2(CCCCC2)Nc2c1ccc1ccccc21 (stereo not given),-12,-2%,?,1.5,11%,18µM*,-8%
CSCCC(NS(=O)(=O)c1cccc(C(F)(F)F)c1)C(=O)N1CCN(C(=O)c2ccco2)CC1 (stereo not given),-3,/,/,/,2%,-1.2%,-8%
N#Cc1ccc(Oc2c(Cl)cncc2Cl)cc1,-9,7%,-3,-0.9,-8%,1.1%,4%
Cc1c(-n2c(CN3C(=O)c4ccccc4C3=O)nc3ccccc3c2=O)c(=O)n(-c2ccccc2)n1C,-9,/,/,/,-3%,0.6%,3%
CSc1nc(-c2ccccc2)nc(N2CCCC2)c1C(C)=O,-1,-21%,-18,-1.0,-87%[inhibitor],-3.0%,?
COc1ccc(Cc2nnc(NC(=O)c3ccc(OC)c(OC)c3)s2)cc1,-1,1%,22,-8.2,-6%,/,-9%
Cc1ccc(Cn2c(N)nc3ccccc32)cc1,-6,20%,-10,-0.1,15%,/,-2%
O=C(c1cccc(N2C(=O)C3C4C=CC(C4)C3C2=O)c1)N1CCCc2ccccc21 (stereo not given),-21,15%,-2,-0.4,-5%[15.4 µM],0.2%,6%
COC(=O)c1sccc1NC(=S)Nc1ccccc1,-12,19%,0,0.8,-49%,0.9%,6%
Cc1ccc(Sc2nc(-c3ccccc3)nnc2C(F)(F)F)cc1,2,-2%,-9,1.5,-29%,1.6%,15%
COc1ccc(S(=O)(=O)N2CCOCC2)cc1NC(=O)Cc1ccc(F)cc1,-6,/,/,/,-33%[inhibitor],-0.2%,/
O=C(/C=C/c1cccc([N+](=O)[O-])c1)Nc1ccccn1,8,9%,-14,-2.3,?,-0.3%,5%
CCOC(=O)c1c(C)n(-c2ccc(OC)cc2)c2c(C/C(C)=N/O)c(Br)c(OC)c(O)c12,-13,11%,14,3.3,22%,-2.5%,-7%[15.4 µM]
Cc1cc(NC(=O)C(C)SCC(=O)OCC(=O)Nc2c(C)cccc2C(C)C)no1 (stereo not given),-14,/,14,/,-23%,-2.3%,3%
O=C(N/N=C/c1ccccc1O)c1cc(=O)[nH]c2ccccc12,/,8%,1,3.3,/,/,/
COc1ccc2[nH]c(C)c(C(=O)CN3CCc4cc(OC)c(OC)cc4C3)c2c1,-10,16%,0,1.1,-35%[15.4 µM],-8.2%,1%
CN1CCN(C(=S)NC(=O)c2ccccc2Br)CC1,-6,-15%,-4,-4.2,3%,-1.5%,7%
COc1ccc(/C=C2/NC(=O)CNC2=O)cc1,-2,-26%,2,2.0,-18%,0.6%,2%
Cc1cc(-c2ccc(S(=O)(=O)N3CCc4ccccc4C3)s2)on1,-6,13%,-3,-0.6,-8%,-4.5%,-5%
CCCC/C(C)=N/NC(=O)CN(c1ccc(Br)cc1)S(=O)(=O)c1ccccc1,0,3%,-3,/,15%,-1.2%,9%
CC1(C)C[C@@H]2C[C@@](C)(CN2C(=O)c2cc(COc3cccc(C(F)(F)F)c3)on2)C1,8,2%,16,/,4%,-0.5%,-9%
# The list continues.
SMILES,D2 potentiator,Sfp inh,TRPV1 potentiator,Menin-MLL FL inh,gsp agonist,ClpP mod,gsp antag
CCn1c2ccccc2c2cc(NC(=O)COC(=O)c3ccc(O)cc3)ccc21,-3,/,14,/,1%[15.4 µM],-26%,-21%
Cc1ccc(CN2CCN(/N=C/c3cc(Br)cc(Br)c3O)CC2)cc1,-26,-9%,-1,1.0,27%,1.4%,-13%
O=C(/C=C/c1cccs1)N1CCC2(CC1)Oc1ccc(Cl)cc1C(=O)C21CC(c2ccc(Cl)cc2)=NO1 (stereo not given),-43,/,/,/,/,0.1%,7%
O=C(C1CC(=O)N(c2ccccc2)C1)N1CCN(C2=NS(=O)(=O)c3ccccc32)CC1 (stereo not given),-9,-12%,-11,8.0,-5%,-0.5%,6%
O=C(Cc1ccccc1)NNC(=O)c1ccccc1C(=O)O,-9,8%,7,-3.7,?,1.1%,11µM*
CCOc1cc(C2C(C(=O)OC)=C(C)N=C3SC(C)C(=O)N32)ccc1OC(C)=O (stereo not given),-14,20%,0,3.9,6%,-0.8%,4%
Cc1ccc(NC(=O)CSCC(=O)N2CCN(c3cccc(C(F)(F)F)c3)CC2)cc1,-10,/,16,/,7%,0.8%,-7%
O=C(Nc1ccccc1Cl)Nn1cnnc1,-20,11%,-8,-1.1,0%,-2.7%,13%
CCN(CC)c1ccc(C(=O)N/N=C/c2ccccc2OC(F)F)cc1,-5,13%,-2,0.7,-29%,-16%,-11%
Cc1ccc(S(=O)(=O)Nc2c(NC3CCCCC3)c3ccccc3oc2=O)cc1,-7,2%,-23,/,-1%,-6.2%,-35%
c1ccc(-n2ncc3c(NCc4cccs4)ncnc32)cc1,-2,-25%,-24,?,-1%,?,13%
COc1ccccc1-c1c(C)oc2cc(OC(=O)c3ccco3)ccc2c1=O,-10,-6%,-9,-2.0,-30%[inhibitor],273%,?
CCN=C1NN=C(c2cc(C)n(Cc3ccco3)c2C)CS1,-20,-6%,4,10.0,0%,5.8%,6%
COc1cccc(OCc2cc(C(=O)N3CCCC3c3ccccn3)no2)c1 (stereo not given),12,7%,-12,/,-27%,-1.1%,-3%
N#Cc1c(N)[nH]c(=S)c(C#N)c1-c1ccccc1,-1,40µM*,18,4.0,20µM*,-9.8%,20%
O=C(NCCCN1CCOCC1)/C(=C/c1ccc(-c2cccc([N+](=O)[O-])c2)o1)NC(=O)c1ccccc1,-10,/,/,/,-5%,-0.7%,/
CCOc1nc2ccccc2nc1NS(=O)(=O)c1ccccc1,6,6%,6,2.0,?,-9.0%,-7%

# Record cards, from the list above. Order of values: D2 potentiator	Sfp inh	TRPV1 potentiator	Menin-MLL FL inh	gsp agonist	ClpP mod	gsp antag
# O=C(C1CC(=O)N(c2ccccc2)C1)N1CCN(C2=NS(=O)(=O)c3ccccc32)CC1 (stereo not given) as listed: -9	-12%	-11	8.0	-5%	-0.5%	6%
# CCN(CC)c1ccc(C(=O)N/N=C/c2ccccc2OC(F)F)cc1 as listed: -5	13%	-2	0.7	-29%	-16%	-11%

# Screening results: PubChem, National Center for Advancing Translational Sciences (NCATS)
